KSHV LANA nucl: inhibitors of KSHV LANA binding to nucleosomes; FITC-LANA1-23 / chicken nucleosome fluorescence polarization; active compounds read low; z-score (test concentration not listed); actives 0.3% (n = 51,000); AID 720717;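 active means both repeat wells score below -2 in polarization z-score versus plate sample wells, excluding overly bright wells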;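 further: 100 nL library stock added to about 30 µL; numbers are from one replicate; some results filed as inactive read as strong as hits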
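Assay system: FITC-LANA peptide and chicken nucleosomes; input: 240 nM purified chicken nucleosomes (480 nM peptide binding sites), final; also added: 50 nM FITC-LANA1-23 probe; medium: TEN-BT buffer, pH 7.5; doses: pin-transferred compound, 100 nL; times: 10–45 min, room temperature; technique: fluorescence polarization; replication: duplicates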
Ab BasE inh: blocks the Acinetobacter baumannii siderophore enzyme BasE. purified BasE, fluorescence polarization binding displacement. inhibition, % (concentration not given with the values). actives 0.1% (n = 84,000). AID 485350;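 active means both replicates above 25% with normal brightness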;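 further: 0% = negative plate control signal and 100% = positive plate control signal; stock transfer was 100 nL into about 30 µL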
The depositor's hits bear a star; · = no result given; & = joins results of further samples. These rows are one share of the data; count on the stated rates, not on these rows.

SMILES	KSHV LANA nucl	Ab BasE inh
O=c1c(-c2ccccc2)nnc2c3ccccc3ncn12	·	-0.8
CCCc1cc(=O)[nH]c(SCC(=O)c2ccc3c(c2)CCN3S(=O)(=O)CC)n1	·	-0.9
c1ccc2nc3c(nc2c1)CCCC3	-1	-0.5
Cc1ccc(Nc2nnc(-c3ccc(C)c(S(=O)(=O)NCC4CCCO4)c3)c3ccccc23)cc1 (stereo unspecified)	·	-4.2
CN(C)C(=O)N1CCC(Cc2ccccc2)CC1	2.4	-4.0
Cc1cc(NC(=O)c2ccc(NS(=O)(=O)c3ccc(F)cc3)cc2)no1	0.73	-2.7
CC(=O)n1c2ccccc2c2cc(Cl)ccc21	0.32	-0.9
COc1ccc(NC(=O)COc2ccccc2Cl)cc1NC(=O)c1ccco1	1.5	-2.0
c1ccc(CCc2nc(-c3ccccc3)no2)cc1	0.74	-0.5
NC(=O)N1CC(O)CC1C(=O)Nc1ccc(Cl)c(Cl)c1 (stereo unspecified)	·	0.7
CN(Cc1ccc(-c2ccc(Br)cc2)o1)C(=O)Cc1ccsc1	·	1.9
O=C1CCc2cc(S(=O)(=O)NC(Cc3ccccc3)C(=O)N3CCN(c4ccccc4)CC3)ccc2N1 (stereo unspecified)	2.3	-0.9
Cn1cc(C(=O)c2cc(F)ccc2O)cc(C#N)c1=O	·	0.9
O=C(Cn1nnc(-c2cccc(Cl)c2)n1)NCC(=O)Nc1ccc(F)cc1	·	0.0
CN(C)C(=O)n1nnc2ccccc21	0.24	0.5
CCNc1nc2[nH]c(=O)cc(O)c2s1	0.53	-0.6
O=c1c(Br)c(NCCCO)cnn1-c1ccccc1	-0.24	1.0
S=c1nn[nH]n1CCc1ccc(Cl)cc1	·	0.6
CC(C1CC1)N(CC(F)(F)F)C(=O)CSc1nnc(-c2ccccc2Cl)o1 (stereo unspecified)	·	1.6
Cc1ccc(CNC(=O)c2cccnc2Sc2cccc(C(F)(F)F)c2)cc1	·	4.7
N#Cc1ccc(COc2ncnc3ccccc23)cc1	·	-3.3
CCc1cc2c(=O)n(CC)c(SCC3CCCCO3)nc2s1 (stereo unspecified)	·	-0.5
Fc1ccc(C(c2nnnn2Cc2ccccc2)N2CCSCC2)cc1 (stereo unspecified)	0.39	-1.0
CN(C)c1nc(NCCNS(=O)(=O)c2ccc(Cl)cc2)nc(N(C)C)n1	0.16	-1.9
Nc1ccc2nc(-c3ccccc3)oc2c1	0.28	1.7

New compounds follow
SMILES	KSHV LANA nucl	Ab BasE inh
O=C(Nc1ccccc1O)c1csc2c1CCCC2	-0.078	-1.6
CN(C)c1oc(-c2ccc(Cl)cc2)nc1C#N	·	1.5
CC(=N\N1CCOCC1)/C(C)=N/N1CCOCC1	·	0.5
CC(=O)Nc1cc2c(cc1C(=O)C(C)C)OCCO2	0.33	1.6
COc1ccc(C2CC(=O)c3cnc(NC(=O)c4ccccc4)nc3C2)cc1 (stereo unspecified)	0.18	3.1
O=C1CCCc2cc(S(=O)(=O)NCCCN3CCN(c4ccccc4)CC3)ccc2N1	·	-1.6
COc1c(C)cc(Br)cc1C(=O)NC(=S)Nc1cccc(-c2nc3ncccc3o2)c1C	-0.56	3.1
CSCCC(=O)Nc1nc2ccccc2[nH]1	·	0.7
CC1C/C(=N\NC(=S)NC(C)C)CC(C)(C)C1 (stereo unspecified)	·	-0.1
FC(F)(F)c1ccccc1-n1ccnc1	0.23	3.1
COC(=O)c1ccc(Cn2cnc3c(cnn3C)c2=O)cc1	·	-1.6
O=C1Nc2ccccc2S/C1=C\C(=O)N1CCc2ccccc2C1	-0.44	-1.9
Cc1ccc(C)c(Cn2cnc3c(cnn3CCO)c2=O)c1	-0.024	-1.3
O=C1c2ccccc2C(=O)N1/N=C/c1ccc(-c2ccccc2Br)o1	·	-0.5
CCOC(=O)c1cnc(SCC(=O)N2CCCCC2)nc1N	-0.26	1.0
COc1ccc(Cn2c(=O)c3[nH]cnc3n(-c3cc(S(C)=O)ccc3C)c2=O)cc1 (stereo unspecified)	·	0.9
COc1cc(C2Nc3ccc4ncccc4c3C3=C2C(=O)CCC3)cc(OC)c1O (stereo unspecified)	-0.15	0.2
CN(C)c1ccc(P(C)(C)=O)cc1	·	1.5
Cc1[nH]c(SCC(=O)N2CCN(CC3CCCO3)CC2)nc1Cc1ccccc1 (stereo unspecified)	·	-0.1
COC(=O)c1c(NC(=O)CSc2nnnn2-c2ccccc2)sc2c1CCC2	·	-2.1
S=c1[nH]c(=S)c2ccccc2[nH]1	·	-1.1
CC(C)OC(=O)CC1C(=O)NCCN1C(=S)NC(=O)C1CCCCC1 (stereo unspecified)	-0.29	1.8
CCOC(=O)CSc1nnc(-c2cccc(S(=O)(=O)N3CCCCC3)c2)n1-c1ccccc1	·	-0.3
Cc1cc(C)n(C(=O)C2CC(=O)N(c3ccccc3)C2)n1 (stereo unspecified)	0.92	1.3
Cc1ccnc(SCn2c(=S)sc3ccccc32)n1	·	2.1

Continuation:
SMILES	KSHV LANA nucl	Ab BasE inh
CCN(CC)S(=O)(=O)c1ccc(/C=C/C(=O)OCC(=O)N2CCCCC2)cc1	·	0.5
Cc1ccc(/C=C/C(=O)Cc2ccccc2)cc1	0.54	·
COc1cnn(C(C)(C)C)c(=O)c1Cl	-0.49	-0.5
CCCCn1c(=O)n(CC(=O)NC2CCCCC2C)c(=O)c2c1ncn2CCC(C)C (stereo unspecified)	·	3.0
O=C(O)c1ccccc1NCc1ccccn1	-0.64	3.1
COc1ccc(N2CN(S(=O)(=O)c3ccc(NC(C)=O)cc3)c3nc4ccccc4nc32)cc1	·	3.6
COC(=O)CN(C#N)c1nc(C)cc(C)n1	-1.6	0.8
CC1(C)OC(=O)C(=Cc2ccccc2F)C(=O)O1	·	-3.2
CC1CN=C(N(C(=O)Nc2cccc(Cl)c2)C2CCCCC2)S1 (stereo unspecified)	·	0.6
Cc1ccc(NC(=O)CN2CCN(CCNS(=O)(=O)c3ccc(C)cc3)CC2)cc1	·	-0.1
O=C(CSCCOc1ccccc1)N1CCOCC1	-0.9	-0.2
COc1cc2c(cc1OC)CN(C(=O)CSc1nc(C)cc(C)c1C#N)CC2	0.32	3.0
CN(C)c1ccc(/C=C(\C#N)C(N)=C(C#N)C#N)cc1	·	5.8
CCOC(=O)c1c(C)[nH]c(C(=O)OCc2cccc(OC)c2)c1C	·	-0.4
CC(C)OC(=O)CN1C(=O)c2ccc(C(=O)OC(C)C)cc2C1=O	·	4.8
Cc1cc(C)nc(NNC2=CC(=O)CC(C)(C)C2)n1	·	-1.7
O=C(CSc1nnc(-c2ccco2)o1)N1N=C2/C(=C/c3ccco3)CCCC2C1c1ccco1 (stereo unspecified)	·	1.6
CN(C)C(=S)SCC(=O)c1ccc(Cl)cc1	·	-1.7
Cc1ccc(CN(C)S(=O)(=O)c2ccc(Cl)cc2C(F)(F)F)o1	·	1.3
O=C(CC1Nc2ccccc2NC1=O)Nc1ccc(O)cc1 (stereo unspecified)	0.63	2.8
COc1ccccc1N1C(=O)S/C(=C\c2ccccc2)C1=O	·	3.7
O=C(c1ccc(N2CCOCC2)cc1)c1cccs1	-0.22	1.4
O=C(C1CC1)N(Cc1ccccn1)c1nc2ccccc2s1	0.08	-7.2
COc1cccc(NC(=O)Cn2c(=O)oc3cc(S(=O)(=O)N4CCCCC4C)ccc32)c1 (stereo unspecified)	-1.3	-2.0
Cc1cccc(C(=O)OCC(=O)NC2CCS(=O)(=O)C2)c1C (stereo unspecified)	·	1.6

A draw from above in order of SMILES length, smallest number first:
SMILES	KSHV LANA nucl	Ab BasE inh
COc1cc2c(cc1OC)CN(C(=O)CSc1nc(C)cc(C)c1C#N)CC2	0.32	3.0
CCCCn1c(=O)n(CC(=O)NC2CCCCC2C)c(=O)c2c1ncn2CCC(C)C (stereo unspecified)	·	3.0
O=C(CSc1nnc(-c2ccco2)o1)N1N=C2/C(=C/c3ccco3)CCCC2C1c1ccco1 (stereo unspecified)	·	1.6
COc1ccc(N2CN(S(=O)(=O)c3ccc(NC(C)=O)cc3)c3nc4ccccc4nc32)cc1	·	3.6

More entries follow.
SMILES	KSHV LANA nucl	Ab BasE inh
O=C(c1ccccc1)N1CCCc2ccccc21	0.072	·
CCOC(=O)c1c(-c2ccccc2)oc2ccc(O)c(CN3CCCC3)c12	-0.088	-3.3
N/C(=N/OC(=O)c1ccccc1F)c1nonc1N	1.6	-3.1
Cn1c(=NC(=O)c2ccc(S(=O)(=O)N3CCCCC3)cc2)sc2c3ccccc3ccc21	·	2.1
O=c1/c(=C/c2cccs2)sc2ncnn12	-0.9	0.4
CC(C)Cn1c(Sc2ncnc3sccc23)nc2ccccc2c1=O	·	1.8
NC(Cc1ccccc1)C(O)(c1ccccc1)c1ccccc1 (stereo unspecified)	0.6	-1.1
CCOC(=O)C(=NC1CCS(=O)(=O)C1)NNc1cc(C(F)(F)F)ccc1Cl (stereo unspecified)	·	4.8
CC(C)Cn1c(SCC(=O)Nc2sccc2C#N)nnc1-c1ccco1	·	-3.1
COCCCn1c(=O)cc(C)[nH]c1=S	0.63	-0.5
c1ccc2c(c1)nc(NCc1ccncc1)n2CCN1CCCCC1	0.077	-0.2
COc1ccccc1-n1nnc(C(=O)Nc2nccs2)c1C	-0.1	1.4
CC(C)Cn1c(SCC(=O)c2ccc[nH]2)nnc1-c1ccco1	·	-3.3
CN(C)S(=O)(=O)Nc1ccc(Oc2ccccc2)cc1	·	0.4
O=C(Cc1ccc(Cl)cc1)N1CCOCC1	-0.2	-0.3
CCN1CCN(C(=O)N[C@@H](C(=O)N[C@@H]2C(=O)N3C(C(=O)O)=C(CSc4nnnn4C)CS[C@H]23)c2ccc(O)cc2)C(=O)C1=O	1.2&1.2	-4.8
Oc1ccc(Nc2nc(-c3ccc(O)cc3)cs2)cc1	0.57	16
CCn1c(=O)cc(OCC(=O)NCc2ccc(C)cc2)c2ccccc21	-0.33	-4.9
CC(C)N1CCC(=NNc2cccc(C(=O)O)c2)CC1	·	1.6
CC(C)CC(=O)Nc1ccc(C(=O)Nc2ccc(O)cc2)cc1	-0.65	5.0
O=c1c2ccccc2c(C=Nc2cccc(O)c2)c(O)n1-c1cc(Cl)ccc1N1CCOCC1	·	-2.4
C1CCc2sc(NCC3CCCO3)nc2C1 (stereo unspecified)	·	-1.3
CCc1ccc(OCCNc2nc(C)c(Br)c(=O)[nH]2)cc1	0.35	12
O=C(O)C1CCCN1S(=O)(=O)c1ccccc1C(F)(F)F (stereo unspecified)	·	0.7
CN(CCC#N)C(=S)Nc1ccc(F)cc1	·	-1.8

An excerpt from above in order of the KSHV LANA nucl value, low to high.
molecule	KSHV LANA nucl
O=c1/c(=C/c2cccs2)sc2ncnn12	-0.9
COc1ccccc1-n1nnc(C(=O)Nc2nccs2)c1C	-0.1
c1ccc2c(c1)nc(NCc1ccncc1)n2CCN1CCCCC1	0.077
Oc1ccc(Nc2nc(-c3ccc(O)cc3)cs2)cc1	0.57

Further structures.
SMILES	KSHV LANA nucl	Ab BasE inh
Cc1ccc(CN(C)C(=O)c2n[nH]c3ccccc23)o1	·	-0.4
O/N=C(\c1ccccc1)C1CC2CCC1CC2 (stereo unspecified)	·	1.6
O=S1(=O)CCN2C(=N1)Oc1ccc(Cl)cc12	·	-0.6
CCn1nc(Nc2ccc(C)cc2)c(Cl)c1Nc1ccc(C)cc1	1.9	-3.2
N#CCN(CC#N)C(=O)Cc1cccs1	2.3	-2.1
Cc1cc(-c2ccccc2)nc2cc(C(=O)N3C(C)CCCC3C)nn12 (stereo unspecified)	-0.44	1.4
CCc1ccc(NC2SC(=O)N(c3ccccc3)C2=O)cc1 (stereo unspecified)	·	0.7
COc1ccc(OC)c(C2=NOC(C(=O)N3C(C)CCCC3C)C2)c1 (stereo unspecified)	-1.4	-1.0
Cc1nc(C(F)(F)F)nc(N2CCCCC2)c1Oc1ccccc1	-0.5	0.2
O=S(=O)(NCC1CCCO1)c1ccc2oc3ccc(S(=O)(=O)NCC4CCCO4)cc3c2c1 (stereo unspecified)	·	0.6
O=C(Cn1nnc(-c2ccccc2)n1)NCCC1=CCCCC1	-1	1.6
O=C(NCc1ccccc1)c1cc2ccccc2[nH]1	·	-0.7
O=C(OCC(=O)N(Cc1ccco1)C12CC3CC(CC(C3)C1)C2)c1cnccn1	·	-1.7
COc1ccc(OCC(=O)Nc2ccc(-c3nc4ncccc4o3)cc2)cc1	0.042	-0.9
CCC(=O)Nc1cccc(-c2nc3ccccc3o2)c1C	0.12	-6.0
CS(=O)(=O)N1Cc2ccccc2CC1C(=O)OCC(=O)c1ccc(Br)s1 (stereo unspecified)	·	-0.5
O=C(/C=C/c1ccc(F)cc1)Oc1cc(Cl)c[nH]c1=O	·	-3.4
CCN(CCCNc1nnc2c3ccccc3n(C)c2n1)c1cccc(C)c1	0.35	0.7
COc1ccc(CNC(=O)c2cc(-c3ccccc3)n[nH]2)cc1	-1.5	-4.4

Whole records as entered above.
N#CCN(CC#N)C(=O)Cc1cccs1 in the list: KSHV LANA nucl = 2.3; Ab BasE inh = -2.1
Cc1cc(-c2ccccc2)nc2cc(C(=O)N3C(C)CCCC3C)nn12 (stereo unspecified) in the list: KSHV LANA nucl = -0.44; Ab BasE inh = 1.4

4 entries from above, as a markdown table:
| canonical_smiles | KSHV LANA nucl | Ab BasE inh |
| --- | --- | --- |
| O=C(NCc1ccccc1)c1cc2ccccc2[nH]1 | · | -0.7 |
| O=C(OCC(=O)N(Cc1ccco1)C12CC3CC(CC(C3)C1)C2)c1cnccn1 | · | -1.7 |
| COc1ccc(CNC(=O)c2cc(-c3ccccc3)n[nH]2)cc1 | -1.5 | -4.4 |
| Cc1cc(-c2ccccc2)nc2cc(C(=O)N3C(C)CCCC3C)nn12 (stereo unspecified) | -0.44 | 1.4 |

High-throughput results as filed in PubChem.
